High-throughput results: PubChem BioAssay, National Center for Advancing Translational Sciences (NCATS)
Cruzain noTriton = qHTS Assay for Promiscuous and Specific Inhibitors of Cruzain (without detergent); purified cruzain, Z-FR-AMC fluorescence, no detergent; Potency, µM, for inactives: max response, negative = inhibition, hits mostly inhibitors; Cruzipain (Trypanosoma cruzi), P25779; hit rate 2.3% among 200,000; AID 1476, 2009;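 further: plate controls were enzyme without inhibitor for no effect and buffer without enzyme for full effect; nearly all actives have a fitted effect of over 40% in size; top concentration of the series not given in the record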
Target sequence (P25779 123-467 limits assumed): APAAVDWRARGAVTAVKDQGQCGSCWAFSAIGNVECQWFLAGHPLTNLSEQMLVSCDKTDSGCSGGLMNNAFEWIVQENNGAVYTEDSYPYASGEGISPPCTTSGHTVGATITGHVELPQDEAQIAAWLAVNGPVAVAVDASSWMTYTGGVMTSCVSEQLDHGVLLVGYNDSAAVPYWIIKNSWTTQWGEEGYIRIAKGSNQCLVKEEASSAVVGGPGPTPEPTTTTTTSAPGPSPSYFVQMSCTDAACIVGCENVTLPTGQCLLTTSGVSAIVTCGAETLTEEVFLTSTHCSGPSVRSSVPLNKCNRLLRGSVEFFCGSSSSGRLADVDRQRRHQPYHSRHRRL
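Purified cruzain at 1.5 nM, pre-incubated 15 min with compound at room temperature in 100 mM sodium acetate pH 5.5, 5 mM DTT, 0.00005% Triton X-100. Reaction started with 2 uM Z-FR-AMC; AMC fluorescence increase over 60 s gives rate.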
RE007 growth inh = qHTS Assay for Inhibitors of the HIV-1 protein Vpr; AID 651644, 2012; hit rate 0.21% among 360,000; Potency, µM (series often up to 92.2 µM), without a hit: at the highest dose activity change, negative = less growth; S. pombe RE007 Vpr strain, BacTiter-Glo ATP luminescence, 24 h; control for the full effect not named in the record; active = well fitted falling curve with a large enough effect; inconclusive = small, poorly fitted or top-dose-only effect; inactive = no such curve, though single readings can be large or run the other way;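 further: on the % scale 0 is the no-effect control and ±100 the full control effect; nearly all actives have a fitted effect of over 50% in size; the assay follows cell death caused by Vpr and the record does not say whether a fall means rescue or toxicity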
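Fission yeast RE007 carrying one integrated HIV-1 vpr copy, seeded at OD 0.01 in PMG+AL medium with 23 nL pinned compound. Grown 24 h at 30 degrees; viability read by BacTiter-Glo luminescence after 5 min.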
LASV entry inh = qHTS for Inhibitors of binding or entry into cells for Lassa Virus; Lassa virus pseudotype entry inhibition, cell reporter; control for the full effect not named in the record; Potency, µM (top dose mostly 37.9 µM), for inactives: at the highest dose activity change, negative = inhibition, actives largely listed as inhibitors; hit rate 1.2% among 300,000; active means well fitted inhibition curve with a large enough effect; inconclusive means small, poorly fitted or top-dose-only effect, or effect the other way; inactive means flat fitted curve, though single readings scatter; tested in HEK293 cells; further: on the % scale 0 is the no-effect control and ±100 the full control effect; nearly all actives have a fitted effect of over 50% in size; luciferase read-out
Cruzain Triton = qHTS Assay for Promiscuous and Specific Inhibitors of Cruzain (with detergent). Cruzipain (Trypanosoma cruzi), P25779. purified cruzain, Z-FR-AMC fluorescence, 0.01% Triton. Potency, µM, without a hit: max response, negative = inhibition, most hits filed as inhibitors. hit rate 0.43% among 200,000. AID 1478, 2009;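 further: plate controls were neutral wells for no effect and buffer without enzyme for full effect; nearly all actives have a fitted effect of over 40% in size; top concentration of the series not given in the record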
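Sodium acetate buffer (100 mM, pH 5.5) containing 5 mM DTT and 0.01% Triton X-100 hosted 1.5 nM cruzain and test compound for 15 min at room temperature. Cleavage of 2 uM Z-FR-AMC was then tracked by fluorescence.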
NS1 function inh = qHTS Assay for Inhibitors of Influenza NS1 Protein Function; S. cerevisiae slowed by influenza A NS1, growth recovery by OD600; Potency, µM (highest dose often 46.1 µM), for inactives: at the highest dose activity, positive = more growth; hit rate 0.4% among 270,000; active means well fitted rising curve with a large enough effect; inconclusive means small, poorly fitted or top-dose-only effect; inactive means no such curve, though single readings can be large or run the other way; further: nearly all actives have a fitted effect of over 50% in size
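Recovery from NS1-induced slow growth read by OD600 in budding yeast switched to galactose assay medium (pH 6.0, -URA) at 1:100 dilution. Compound 23 nl per well; the matching strain lacking NS1 serves as control.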
SARS PLP yeast = qHTS of Yeast-based Assay for SARS-CoV PLP. S. cerevisiae expressing SARS-CoV PLpro, growth rescue; control for the full effect not named in the record. Potency, µM (series often up to 32.9 µM), for inactives: at the highest dose activity, positive = growth rescue. hit rate 0.19% among 330,000; active means well fitted rising curve with a large enough effect; inconclusive means small, poorly fitted or top-dose-only effect; inactive means no such curve, though single readings can be large or run the other way; further: 0% is about no effect; nearly all actives have a fitted effect of over 55% in size; growth read by luminescence after 48 h
MARV entry inh = qHTS for inhibitors of binding or entry into cells for Marburg Virus; Marburg virus pseudotyped entry inhibition, cell reporter; control for the full effect not named in the record; about a third of the inactives were read at about 46 µM; Potency, µM (top dose mostly 37.8 µM), without a hit: top-dose activity change, negative = inhibition, usual class: inhibitors; hit rate 1.8% among 300,000; active = well fitted inhibition curve with a large enough effect; inconclusive = small, poorly fitted or top-dose-only effect, or effect the other way; inactive = flat fitted curve, though single readings scatter; tested in HEK293 cells; about a fifth of its hits are not listed in these tables; further: on the % scale 0 is the no-effect control and ±100 the full control effect; luciferase read-out
2A StopGo = High Throughput Screening for Foot and Mouth Disease Virus Antivirals; AID 1159524, 2015; human cells with a luciferase reporter of 2A StopGo recoding; control for the full effect not named in the record; Potency, µM (titrated, usually from 57.9 µM), inactives show at the top dose signal change, negative = less light; hit rate 1.2% among 410,000; active = well fitted falling curve with a large enough effect; inconclusive = small, poorly fitted or top-dose-only effect; inactive = no such curve, though single readings can be large or run the other way; tested in HEK293T cells; further: on the % scale 0 is the no-effect control and ±100 the full control effect; nearly all actives have a fitted effect of over 45% in size; luciferase light after 4 h
An asterisk follows results filed as active; ? = inconclusive; . = not tested or not shown; & = joins results of further samples; [ ] = remark or other dose. Unless noted, the call rests on the fitted dose curve; in most records, active means well fitted curve in the direction sought with a large enough effect; inconclusive means small, poorly fitted or top-dose-only effect, or another doubt; inactive means no such curve, though single readings can be large; an effect the other way counts as inactive or inconclusive. Potency means the concentration at half of the fitted maximal effect.

Structure	NS1 function inh	SARS PLP yeast	RE007 growth inh	Cruzain Triton	MARV entry inh	2A StopGo	LASV entry inh	Cruzain noTriton
COCCN(C(=S)Nc1ccccc1C)C(C)c1cccnc1 (stereo unspecified)	28%	-8%	2%	-0.6%	?	-17%	-17%	-10%
COc1ccc(N2CCN(C(=O)C3(S(=O)(=O)c4ccc(C)cc4)CC3)CC2)cc1	4%	1%	-3%	.	7%[46.1 µM]	5%	9%[46.1 µM]	.
CCn1c(=O)n(CC)c2cc(N3CCCC3)c(NC(=O)c3ccc(F)cc3)cc21	0%	-3%	-11%	.	.	?	.	.
COc1ccc(CN2CCC(n3nccc3NC(=O)CCCc3ccccc3)CC2)cc1C	3%	2%	3%	.	.	?	.	.
COc1ccc2oc(C(=O)OCc3c(C)noc3C)c(C)c2c1	-3%	0%	-5%	.	8%[46.1 µM]	-5%	-4%	.
O=C(Nc1ccc(N2CCCCC2)cc1)c1ccc2ccccc2n1	-4%	-4%	-17%	.	.	-7%	.	.
COC(=O)c1ccc(COC(=O)c2c(C)nn(Cc3ccccc3Cl)c2Cl)o1	-18%	-21%	12%	-1.7%	-10%	?	?	0%
CCCCCCC(=O)Nc1cc2c(C)cc(=O)oc2cc1C	3%	0%	1%	1.0%	6%	11%	35%	?
CCOC(=O)C1=C(C)N(C)C(=S)NC1c1cc(OC)ccc1OC (stereo unspecified)	.	0%	16%	.	-18%[46.1 µM]	-20%	-8%	.
COC(=O)Cc1ccc(NC(=O)c2cccs2)cc1	-34%	-18%	-15%	1.1%	0%[46.1 µM]	52%[activator]	5%	4%
COc1ccc(C2(Nc3cccc(F)c3)C(=O)c3ccccc3C2=O)cc1	.	.	.	-6.7%	7%[46.1 µM]	-13%	15%[46.1 µM]	?
O=C(O)CC1COc2ccccc2N1S(=O)(=O)c1ccc(Br)cc1 (stereo unspecified)	7%	-5%	-10%	.	-15%	-4%	-9%	.
CSC(=CC(=O)c1ccccc1)SC	-31%	-13%	-28%	-0.9%	0%	52%[activator]	45%[14.3 µM]	-6%
c1ccc(SCc2nc(-c3ccccn3)no2)cc1	-12%	-8%	0%	5.7%	?	2%	16%	-1%
CN1CCN(c2ccc(Cl)cc2NC(=O)c2ccc(=O)n(C)n2)CC1	.	1%	-8%	.	?	-12%	2%	.
COc1ccc(C(=O)C(CN2CCOCC2)c2ccccc2)cc1 (stereo unspecified)	-201%	-36%	-21%	2.6%	?	11µM*	13µM*	10%
Cc1cc(Sc2nc(N)ncc2[N+](=O)[O-])ncn1	.	-3%	7%	.	?	?	-11%	.
Cc1ccc(-c2sc(C)nc2CC(=O)O)cc1	2%	-5%	7%	1.8%	3%[46.1 µM]	-20%	4%	3%
COc1ccc(C(=O)Nc2cccc(S(C)(=O)=O)c2)cc1OC	7%	0%	-1%	.	?	11%	8%	.
Cc1ccc(-c2c(C)n([O-])c3c([n+]2=O)CCCC3)cc1	.	-4%	18%	.	5%[46.1 µM]	-3%	.	.

The results go on:
Structure	NS1 function inh	SARS PLP yeast	RE007 growth inh	Cruzain Triton	MARV entry inh	2A StopGo	LASV entry inh	Cruzain noTriton
O=C(N/N=C/C1CC2CCC1C2)c1c[nH]c2ccccc12 (stereo unspecified)	-1%	-2%	19%	.	7%	12%	1%	.
CN(C(=O)CSc1nncn1C)C1CCCN(Cc2ccccc2F)C1 (stereo unspecified)	1%	-2%	2%	.	.	-21%	.	.
Cc1ccc(CNC(=O)C2CCCN(S(=O)(=O)c3cnc[nH]3)C2)cc1 (stereo unspecified)	?	-7%	4%	9.7%	5%	1%	3%	18%
COc1cnc(-c2ccccc2)nc1OC	.	2%	-5%	.	8%[46.1 µM]	23%	2%[46.1 µM]	.
Cc1ccc(C)c(Oc2cc(NN3CCCCC3)c([N+](=O)[O-])cc2[N+](=O)[O-])c1	-6%	1%	-9%	.	.	0%	.	.
CC(=O)N1CCC(C(=O)c2ccc(Cl)cc2)CC1	1%	-6%	8%	1.1%	-17%[46.1 µM]	1%	1%	4%
COc1ccc(NC(=S)N2CCCC2)cc1	6%	5%	-1%	-2.0%	?	48%[activator]	?	15%
CC1=C(C(=O)OC(C)(C)C)C(c2ccco2)C(C#N)=C(N)O1 (stereo unspecified)	-6%	2%	-8%	-6.2%	15%	.	-17%	-1%
O=C(NCc1nc2ccccc2[nH]1)C1=C[C@H](c2ccc(Br)cc2)C[C@H](OCc2ccc(CO)cc2)O1	12%	-1%	0%	.	.	-11%	.	.
O=C(/C=C/c1ccccc1)Oc1ccc(C(=S)N2CCOCC2)cc1	.	-4%	-4%	.	9%[46.1 µM]	13%	25%	.
O=C(NCC1CCCO1)c1c(O)c2cccc3c2n(c1=O)CCC3 (stereo unspecified)	-18%	-1%	-12%	-7.4%	0%	-7%	-3%	?
NS(=O)(=O)c1ccc(S(=O)(=O)N2CCCC2)cc1	12%	0%	2%	1.5%	-7%	-16%	5%	-28%
COc1ccc(C(=O)Nc2nc(-c3nnn(-c4cc(OC)ccc4OC)c3C)ns2)cc1	.	.	.	-1.9%	.	-20%	-1%[46.1 µM]	-1%
C/C(Cn1nc([N+](=O)[O-])cc1C)=N\NC(=O)COc1ccccc1[N+](=O)[O-]	1%	14%	14%	-2.4%	17%	-16%	3%	-4%
CN(CC(=O)Nc1cccc(F)c1)C(=O)/C=C/c1ccc2ccccc2n1	9%	-6%	6%	.	-29%[46.1 µM]	3%	?	.
O=C(Nc1nncs1)C(Sc1ccccc1)c1ccccc1 (stereo unspecified)	-5%	-8%	-8%	-8.7%	-16%	-10%	5%	-8%
COc1cc2cc(C(=O)N/N=C/c3ccccc3Cl)[nH]c2cc1OC	2%	-2%	2%	.	.	?	.	.
CC12CCC(C/C1=N\N=C1\NC(=O)/C(=C\c3ccc(Cl)cc3)S1)C2(C)C (stereo unspecified)	2%	-39%	-1%	-5.8%	?	-14%	?	-29%
Cn1cnc2c(oc3ccccc32)c1=O	.	.	0%	.	14%[46.1 µM]	20%	-3%	.
COc1ccc(N2CCN(C(=O)Cc3noc4ccc(C)cc34)CC2)cc1	.	.	.	?	.	-21%	-10%[46.1 µM]	?

(further entries)
Structure	NS1 function inh	SARS PLP yeast	RE007 growth inh	Cruzain Triton	MARV entry inh	2A StopGo	LASV entry inh	Cruzain noTriton
O=C(NCc1ccccn1)C1CCCN(S(=O)(=O)c2cccc3nsnc23)C1 (stereo unspecified)	1%	5%	16%	5.0%	7%	-1%	5%	-1%
CCOc1ccccc1Nc1ncnc2c1cnn2-c1ccccc1	-55%	-21%	15%	-0.7%	.	-13%	.	-21%
N=c1oc2ccc(Br)cc2cc1C(=O)NCc1ccccc1	?	4%	1%	.	-20%	4%	-8%	.
COc1ccccc1-c1nn(CCC(=O)Nc2cccc(C(C)=O)c2)c2nc(C)cc(C)c12	.	.	.	-4.7%	-15%[46.1 µM]	?	-28%[46.1 µM]	?
COc1ccc(NC(=O)C(NC(=O)/C=C\c2ccc3c(c2)OCO3)c2ccc(C)cc2)cc1 (stereo unspecified)	.	.	.	-5.4%	7%[46.1 µM]	12%	4%[46.1 µM]	?
CC1=CC2=NC(=O)/C(=C\c3cc(C)n(-c4ccccc4F)c3C)C(=N)N2O1	-4%	19%	12%	-7.0%	6%	2%	?	-3%
COc1nnc(-c2ccc(N3CCCCC3)c(NC(=O)C3CCCCC3)c2)c2ccccc12	0%	19%	-9%	-2.0%	2%	?	17%	-11%
N/C(=N\NC(=O)Nc1ccccc1)c1ccccn1	7%	-2%	-3%	.	?	47%[activator]	-24%	.
Cc1ccccc1CSc1nc(C(C)(C)C)cc(=O)[nH]1	-7%	0%	5%	.	-24%[46.1 µM]	-10%	12%[46.1 µM]	.
CC1=NC(C(F)(F)F)(C(F)(F)F)C(C#N)=C(C)N1	-7%	1%	6%	7.6%	-10%	.	-16%	1%
O=C(Nc1nnc(S(=O)(=O)N2CCOCC2)s1)c1cccc(Br)c1	3%	28%	9%	-2.0%	.	0%&-5%	-4%[46.1 µM]	-2%
COc1ccc(OCCC(=O)NCC23CC4CC(CC(C4)C2)C3)cc1	-10%	0%	-14%	.	-11%&-11%[46.1 µM]	-6%	1%[46.1 µM]	.
Cc1cc2nc(CSc3ccccc3)cc(=O)n2[nH]1	.	1%	-6%	.	11%[46.1 µM]	5%	-2%	.
COc1ccc(OC)c(-n2c(CNC3CCN(Cc4ccccc4)CC3)nc3ccccc3c2=O)c1	-2%	-1%	-6%	-2.3%	-13%	1%	9%	13%
Cc1ccc(-c2cn3c(=O)cc(C)[nH]c3n2)cc1	24%	5%	1%	-1.2%	-10%	39%	15µM*	-17%
COCCNC(=O)c1ccc(-c2nc(CS(=O)(=O)c3ccccc3)c(C)o2)cc1	.	.	.	4.4%	.	0%	-3%[46.1 µM]	-5%
Cc1noc(C)c1C(=O)OCC(=O)Nc1ncc(Cl)c(C)c1Cl	.	-4%	9%	.	2%	-2%	10%	.
Cc1ccc(N2CC(c3nc4ccccc4[nH]3)CC2=O)c(C)c1 (stereo unspecified)	-4%	10%	-8%	-1.9%	.	-26%	.	-5%
COc1ccc(CNC(=O)C(c2cccc(C)c2)N(C(=O)c2csnn2)C2CC2)cc1 (stereo unspecified)	2%	0%	5%	.	-2%[46.1 µM]	-15%	-15%	.
COc1ccc(NC(=O)C2CCCN2C(=O)OCc2ccccc2)cc1 (stereo unspecified)	1%	2%	7%	.	0%[46.1 µM]	5%	17%	.
